Choline anaer gr – growth inhibitors of anaerobic choline-fed gram-negatives, minimal medium, absorbance | Gram-negative bacterium anaerobic choline minimal medium; hits give low values; many inactives read as strong as hits in the columns shown | calls only | hit rate 0.2% among 55,000;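 active means growth z-score on choline under -2 at 7 or 20 h with little or no fall on glycerol, limits in tiers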;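 further: stock transfer was 300 nL into about 50 µL; the organism is E. coli; final concentration not given here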
Choline anaer gr early – second read-out of Choline anaer gr, no call of its own (marks repeat the call); z-score; measured here: choline growth z-score, timepoint 1;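 score of optical density at 7 h as mean of two plates; lower means less growth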
* = called active by the depositor; i = inactive; & = joins results of further samples.

Molecule,Choline anaer gr,Choline anaer gr early
c1ccc2c(N3CCOCC3)nnc(N3CCCC3)c2c1,i,-1.98
COc1ccc(Cc2nnc3sc(-c4cc(CC(C)C)[nH]n4)nn23)cc1,i,1.27
COc1cccc(C(=O)NCCN2CCN(c3ccc(Cl)cc3)CC2)c1,i,0.64
CC(C)C(=O)Oc1ccc(CO)cc1C(CCN(C(C)C)C(C)C)c1ccccc1 (stereo unspecified),i,0.71
Cc1c(-c2cc(C(=O)Nc3ccc4c(c3)OCCO4)c3ccccc3n2)cnn1-c1ccc(F)cc1,i,1.68
CCC(C(=O)Nc1cc(OC)ccc1OC)n1c(C(=O)OC)cc2ccsc21 (stereo unspecified),i,0.47
COc1ccc(C2CC(=O)C3=C(C2)Nc2ncnn2C3c2ccc(O)c(OC)c2)cc1 (stereo unspecified),i,0.8
Cc1nc(-c2cccc(NC(=O)Cc3ccccc3Br)c2)no1,i,1.61
Cc1ccc(Nc2nc(NCCCOC(C)C)nc3c2cnn3-c2ccccc2)cc1,i,1.37
CC1(C)CC(=O)N(CC(=O)O)c2ccccc2S1,i,0.25
CCOC(=O)c1c(N)sc2c1CCC(Br)C2=O (stereo unspecified),i,-0.09
COc1ccccc1N1CCN(c2ccc(NC(=O)c3ccccc3Cl)c(C(=O)O)c2)CC1,i,-0.01
O=C(NC1CCCC1)c1cc2n(n1)CCCN(Cc1cccc(F)c1)C2=O,i,-0.33
CCC(C(=O)Nc1cccc(Cl)c1)n1nc(C)c2c(C)n(-c3ccccc3)nc2c1=O (stereo unspecified),i,1.99
Cc1ccc(C(=O)NCCc2sc3nc(-c4ccc(F)cc4)nn3c2C)cc1,i,0.5
Cc1ccc(NC(=O)Nc2ccc(Oc3nc4ccccc4n4nnnc34)cc2)cc1,i,0.96
CCCn1c(=O)c2[nH]c(-c3ccc(S(=O)(=O)O)cc3)nc2n(CCC)c1=O,i,-0.38
CCSc1nc2sc3c(c2c(=O)n1-c1ccccc1)CC(C)(C)OC3,i,0.03
CCOC(=O)C(C)n1cnc2sc3c(c2c1=O)CCC3 (stereo unspecified),i,-0.25
Cc1cc(N(C)C)nc(N2CCN(S(=O)(=O)c3ccc(Cl)cc3)CC2)n1,i,-1.06
CCC(C)NC(=O)Nc1cc2c(cc1N1CCCCC1)n(CC)c(=O)n2CC (stereo unspecified),i,-0.05
O=c1ccc(-c2ccc3c(c2)OCO3)nn1CCc1nc(-c2cccnc2)no1,i,-0.86
CCOc1ccc(C2=NC(c3ccc(OC)cc3)=Nc3ccc(Cl)cc3N2)cc1,i,-1.54
O=C(CSc1nc2c([nH]c3ccccc32)c(=O)n1-c1ccccc1)Nc1ccc2c(c1)OCCO2,i,-0.02
COc1ccc2nc(NC(=O)Cn3ncc4c(=O)oc5ccccc5c43)sc2c1,i,0.04
Cc1cccc(NC(=O)Cn2nc3c(Sc4ccccc4)nc4ccccc4n3c2=O)c1,i,-0.03
Cc1nc(-c2ccc(OCC(C)C)c(C#N)c2)sc1C(=O)O,i,0.48
COCCn1nnc2cc(S(=O)(=O)N3CCCC(C(=O)NCCC4=CCCCC4)C3)ccc21 (stereo unspecified),i,-1.33
CS(=O)(=O)NC1CCN(C(=O)C2CC2)C1 (stereo unspecified),i,0.78
Clc1ccc2c(c1)CCc1cccnc1C2=C1CCNCC1,i,0.03&0.4&-0.27
COc1ccc(NC(=O)c2ncn(-c3ccccc3)n2)cc1Cl,i,0.91
O=C(Nc1ccc(N2CCCN(c3ccc(Cl)nn3)CC2)c(C(=O)O)c1)c1ccc(F)cc1,i,0.26
CCC1COC(c2cccn2Cc2ccccc2Br)=N1 (stereo unspecified),i,-0.22
Cc1nn(-c2ccccc2)c2c1C(c1ccc(O)c(O)c1)C1=C(CC(C)(C)CC1=O)N2 (stereo unspecified),i,0.21
Cc1cc(N2CCCC2)nc(Nc2ccc(NC(=O)Nc3ccccc3)cc2)n1,i,-0.76
Cc1ccc(NC(=O)Cn2cc(-c3nnc(CN4CCCCC4)o3)c3ccccc32)cc1Cl,i,1.16
CCOC(=O)C1CCN(c2nc3ccccc3nc2S(=O)(=O)c2ccc(C)cc2)CC1,i,0.52
O=C(CSc1nnc2ccc(C(=O)NCc3ccccc3)cn12)Nc1ccccc1Br,i,-2.12
CC1N=C2c3ccccc3N=C(SC(C)C(=O)Nc3ccccc3)N2C1=O (stereo unspecified),i,-1.37
CCC(C)NC(=O)N1CCC(c2nc(C)cs2)CC1 (stereo unspecified),i,0.48

Full records, looked up by structure:
COc1ccc(NC(=O)c2ncn(-c3ccccc3)n2)cc1Cl as listed: Choline anaer gr = i; Choline anaer gr early = 0.91
CC1N=C2c3ccccc3N=C(SC(C)C(=O)Nc3ccccc3)N2C1=O (stereo unspecified) as listed: Choline anaer gr = i; Choline anaer gr early = -1.37

Remaining list, next part
Molecule,Choline anaer gr,Choline anaer gr early
O=C(C1CCN(S(=O)(=O)c2cccc3nonc23)CC1)N1CCc2ccccc2C1,i,-0.49
Cc1ccc(C2CC(=O)Nc3c2cnn3-c2nc3ccccc3s2)cc1C (stereo unspecified),i,1.8
CC1(C(=O)NC2CCCC2)Cn2c(c(-n3cccc3)c3ccccc32)C(=O)N1CCC1=CCCCC1 (stereo unspecified),i,0.32
O=C(NCc1cccnc1)C1CCN(Cc2noc(-c3ccc(F)cc3)n2)CC1,i,0
Fc1ccc(OCc2nnc3sc(COc4ccc(Cl)cc4)nn23)cc1,i,0.54
Cc1c(C2CCN(S(=O)(=O)c3cn(C)cn3)CC2)c2ccccc2n1Cc1cccc(F)c1,i,1.37
NC(=O)C1CCN(S(=O)(=O)c2ccc(N3CCCCS3(=O)=O)cc2)CC1,i,-0.73
Cc1nc2nc(-c3ccc(Cl)cc3)nn2c(C)c1CC(=O)N1CCCC1,i,0.24
CC(C)Cn1c(=O)c(=O)[nH]c2cc(-c3noc(-c4ccc5cc[nH]c5c4)n3)ccc21,i,0.17
N#CC1=CN(c2ccc(C#N)cc2)c2cc(Cl)ccc2S1(=O)=O,i,0.41

Arranged by length of the SMILES (high to low): some entries from above.
Molecule,Choline anaer gr,Choline anaer gr early
CC(C)Cn1c(=O)c(=O)[nH]c2cc(-c3noc(-c4ccc5cc[nH]c5c4)n3)ccc21,i,0.17
O=C(C1CCN(S(=O)(=O)c2cccc3nonc23)CC1)N1CCc2ccccc2C1,i,-0.49
O=C(NCc1cccnc1)C1CCN(Cc2noc(-c3ccc(F)cc3)n2)CC1,i,0
Fc1ccc(OCc2nnc3sc(COc4ccc(Cl)cc4)nn23)cc1,i,0.54

The list goes on:
Molecule,Choline anaer gr,Choline anaer gr early
Cc1nc(-c2cccc(N3CC(C(=O)Nc4cccc(Cl)c4)CC3=O)c2)no1 (stereo unspecified),i,0.77
COc1ccc(S(=O)(=O)N2CCc3cc4ccc(OC)cc4nc32)c(C)c1,i,0.54
COC(=O)c1cc(S(=O)(=O)Nc2c(Cl)cc(OC)cc2OC)c[nH]1,i,0.2
O=S(=O)(NCCn1c(C(F)(F)F)nc2cccnc21)c1cccc(Cl)c1,i,-0.27
Cc1cc(-c2ccc(C)c(S(=O)(=O)NC3CCN(Cc4ccccc4)CC3)c2)on1,i,-0.68
CCC(C)NC(=O)Cn1c(=O)n(-c2cc(OC)cc(OC)c2)c(=O)c2ccccc21 (stereo unspecified),i,-0.6
COCCNC(=O)NCCCn1c(C(F)(F)F)nc2cccnc21,i,-1.69
O=C(CCc1nc(-c2cc3ccccc3[nH]c2=O)no1)NCC1CCCO1 (stereo unspecified),i,-1.12
Cc1ccc(NC(=O)N2CCN(c3cnccn3)CC2)cc1,i,-0.35
CCN1CCN(C2(CNC(=O)c3oc4cc(C)cc(C)c4c3C)CCCCC2)CC1,i,-1.21
COCCNc1ncccc1-c1nc(-c2ccc(Cl)cc2)no1,i,1.04
Cc1cccc(S(=O)(=O)N2CCC(c3noc(-c4ccccc4)n3)CC2)c1,i,-1.72
CC(C)CCNC(=O)C1(C)Cn2c(nc3ccccc32)C(=O)N1CCc1ccccc1 (stereo unspecified),i,0.04
Cc1ccc(-n2nc(-c3ccccc3)c3c2NC(=O)CC3c2ccsc2)cc1 (stereo unspecified),i,1.01
Cc1ccc(OCC(O)Cn2c(C3CC(=O)N(C(C)(C)C)C3)nc3ccccc32)c(C)c1 (stereo unspecified),i,-1.89
Cc1nc(Nc2ccccc2)nc2c1C(=O)CC(C)C2 (stereo unspecified),i,0.46
CCN(CC)CCNC(=O)c1cc(S(C)(=O)=O)ccc1OC,i,0.69&0.56
COc1ccc2nc(NC(=O)CC3COc4ccccc4NC3=O)sc2c1 (stereo unspecified),i,0.43
Cc1ccc(COC2CN(S(=O)(=O)c3ccc(Cl)cc3)C2)cc1,i,-0.13
COc1cccc(NC(=O)N2CCN(c3nc4ccccc4n(Cc4ccccc4)c3=O)CC2)c1,i,0.5
Cc1oc2ncnc(Oc3ccc4cnccc4c3)c2c1C,i,0.28
C=CCSc1n[nH]c(NC(C)=O)n1,i,0.64
COc1ccc(C(=O)Nc2cc(-c3ccccc3)nn2-c2ccccc2)cc1,i,0.12
Cc1ccc(-c2cc3ncc4c(n3n2)-c2ccccc2OC4)cc1,i,-0.02
O=C1CCCc2c1cc(C(=O)Nc1ccc(F)cc1)c(=O)n2-c1ccc(F)cc1,i,-1.56
COC(=O)c1cc(S(=O)(=O)NCCC(=O)Nc2ccc(Cl)cc2C)cn1C,i,1.77
CCCCCCn1c(SCCC(=O)O)nc2c1c(=O)[nH]c(=O)n2C,i,-0.6
O=C(N1CCC(n2nnc3cc(F)ccc3c2=O)CC1)C1(c2ccccc2)CC1,i,0.86
Cc1ccc(-c2cc3nc(-c4cccnc4)cc(C(F)(F)F)n3n2)cc1,i,-0.02
CNS(=O)(=O)c1cn(CC(=O)N2CCN(c3ccc(Cl)cc3)CC2)cc1S(=O)(=O)NC,i,-1.92
Cc1noc(C)c1CCN(C)C(=O)c1nc(C2CC2)nc2c1OCCO2,i,0.14
COc1ccc(OCc2cc(=O)n3ccsc3n2)cc1,i,0.06
Cc1ccc(OCC(=O)N2CCC(c3nc4ccccc4s3)CC2)cc1,i,0.34
CCNc1ncnc2onc(-c3cccc(Cl)c3)c12,i,0.5
CCCCC[C@H](O)/C=C/[C@H]1C=CC(=O)[C@@H]1CCCCCCC(=O)O,i,-0.83&0.75
Cc1cc(C(=O)NCc2cccc(Br)c2)c2c(=O)n(C)c(=O)n(C)c2n1,i,1.14
O=C(CCn1nnc2cc(-c3noc(C4CCC4)n3)ccc21)N1CCCC1,i,-0.66
O=c1n(Cc2cccc(C(F)(F)F)c2)nc2c(S(=O)(=O)N3CCOCC3)cccn12,i,0.39
CCc1ccc(NC(=O)Nc2c[nH]c(=O)[nH]c2=O)cc1,i,0.66
COc1ccc(N(C)S(=O)(=O)c2ccc3c(c2)C(=O)Nc2ccccc2O3)cc1,i,1.44

Reprinted at random: 3 entries already listed
Molecule,Choline anaer gr,Choline anaer gr early
O=C(CCn1nnc2cc(-c3noc(C4CCC4)n3)ccc21)N1CCCC1,i,-0.66
COCCNc1ncccc1-c1nc(-c2ccc(Cl)cc2)no1,i,1.04
Cc1c(-c2cc(C(=O)Nc3ccc4c(c3)OCCO4)c3ccccc3n2)cnn1-c1ccc(F)cc1,i,1.68

The results go on:
Molecule,Choline anaer gr,Choline anaer gr early
O=C(Cn1cnc2nc3c(cc2c1=O)CCCC3)NC1CCCc2ccccc21 (stereo unspecified),i,-0.02
Cc1ccc(C)c(OCCCC(C)(C)C(=O)O)c1,i,0.56&0.81
CC1(C(=O)NCc2cccc(F)c2)CCCN(S(=O)(=O)c2cccc(Cl)c2)C1 (stereo unspecified),i,-0.14
COCCNC(=O)NCc1cc(C)n(-c2cccc(Cl)c2)c1C,i,0.84
CC(=O)Nc1cc(C(=O)N2CCC(c3nc(-c4ccccc4)no3)CC2)ccc1C,i,-0.2
Cc1ccc(S(=O)(=O)N[C@@H](Cc2ccccc2)C(=O)CCl)cc1,i,0.08&-0.53
CCN(CC)S(=O)(=O)c1cc(C(=O)N2CCN(c3ccccn3)CC2)ccc1N1CCCC1,i,-0.63
CCC(C)NC(=O)C1CCN(S(=O)(=O)c2c(C)[nH]c(C)c2C(=O)N2CCCCC2)CC1 (stereo unspecified),i,-1.18
c1ccc(-c2nnc(-c3ccccc3OCc3cn4ccccc4n3)o2)cc1,i,2.62
CCNC(=O)NC1CCN(c2cc(C)nc3ncnn23)CC1,i,-0.21
Cc1cc(C)nc(-n2nc(C)c3c2NC(=O)CC3c2sccc2C)n1 (stereo unspecified),i,-0.32
Cc1cc(NC(=O)c2sc3ccccc3c2Cl)cc(-c2nc3ncccc3o2)c1O,i,0.62
CCCn1c(=O)c2ccc(C(=O)NC(C)C)cc2n2c(=O)n(C(C)C(=O)c3ccc(C)c(C)c3)nc12 (stereo unspecified),i,-0.44
O=c1ccc(-c2ccc(Cl)c(S(=O)(=O)NC3CCCC3)c2)n[nH]1,i,-0.04
CCOc1ccccc1C1CC(=O)Nc2c(S(=O)(=O)c3ccccc3)csc21 (stereo unspecified),i,0.05
O=C(CSc1ncnc2nc(N3CCSCC3)sc12)NC1CCCCC1,i,1.14
CC(C)(C)NS(=O)(=O)c1cncc(-c2cc(F)c3nc(N)nn3c2)c1,i,0.85
COc1ccc(OC)c(C(C)NC(=O)COc2cc(C)c3c(C)nn(-c4ccc(C)cc4)c3n2)c1 (stereo unspecified),i,0.09
COc1ccc(CN(C)Cc2cc(=O)n3[nH]c(-c4cccc(C)c4)cc3n2)cc1,i,-0.79

Compound activity as filed in PubChem.

This is a subset, so the mix of outcomes need not match the whole.
